High-throughput results deposited in PubChem by National Center for Advancing Translational Sciences (NCATS).
N370S GC = inhibits or activates N370S mutant glucocerebrosidase; P04062; N370S GC spleen homogenate, 4MU-glucoside fluorescence; Potency, µM (highest dose often 59.4 µM), for the others: top-dose activity change, negative = inhibition, most hits filed as inhibitors; 0.092% of 330,000 active;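 further: 0% = full enzyme activity and -100% = no enzyme basal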
GCN5L2 inh = blocks human GCN5L2 histone acetyltransferase; Q92830; GCN5L2 HAT assay, ThioGlo1 CoA-SH fluorescence; Potency, µM (titrated, usually from 58.9 µM), inactives show at the highest dose activity change, negative = inhibition, most hits filed as inhibitors; 0.21% of 390,000 active; AID 504327
Target sequence (Q92830 whole entry, looked up): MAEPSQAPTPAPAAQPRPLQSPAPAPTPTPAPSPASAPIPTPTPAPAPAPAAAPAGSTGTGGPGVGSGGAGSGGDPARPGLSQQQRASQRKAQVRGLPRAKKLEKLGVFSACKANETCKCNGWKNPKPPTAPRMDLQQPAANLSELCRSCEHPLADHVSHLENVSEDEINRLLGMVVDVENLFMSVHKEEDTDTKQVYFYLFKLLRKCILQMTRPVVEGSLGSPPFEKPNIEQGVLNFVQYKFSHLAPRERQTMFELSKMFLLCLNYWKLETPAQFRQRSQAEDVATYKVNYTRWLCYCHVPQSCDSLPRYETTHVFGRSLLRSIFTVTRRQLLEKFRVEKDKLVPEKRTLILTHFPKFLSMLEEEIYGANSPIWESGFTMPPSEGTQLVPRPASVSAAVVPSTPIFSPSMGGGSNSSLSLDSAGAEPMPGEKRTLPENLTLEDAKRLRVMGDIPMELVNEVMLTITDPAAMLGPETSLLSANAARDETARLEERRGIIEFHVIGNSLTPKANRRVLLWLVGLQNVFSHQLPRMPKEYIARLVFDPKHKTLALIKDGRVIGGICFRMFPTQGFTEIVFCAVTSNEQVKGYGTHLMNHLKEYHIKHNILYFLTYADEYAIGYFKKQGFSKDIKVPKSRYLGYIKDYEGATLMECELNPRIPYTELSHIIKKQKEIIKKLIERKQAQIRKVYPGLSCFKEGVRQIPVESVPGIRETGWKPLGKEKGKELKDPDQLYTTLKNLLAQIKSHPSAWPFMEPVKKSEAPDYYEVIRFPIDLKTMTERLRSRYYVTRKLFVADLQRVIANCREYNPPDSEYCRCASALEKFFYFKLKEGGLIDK
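Enzyme at 20nM final was mixed with library compounds for 15 min at room temperature. Peptide H3(1-25) at 75uM, acetyl-CoA at 70uM and ThioGlo1 at 50uM were then added. Plates were read immediately and after 20 min (Ex340nm/Em540nm).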
An asterisk follows results filed as active; ? = inconclusive; nt = no result given; & = joins results of further samples. The call rests on the fitted dose curve; in most records, active means well fitted curve in the direction sought with a large enough effect; inconclusive means small, poorly fitted or top-dose-only effect, or another doubt; inactive means no such curve, though single readings can be large; an effect the other way counts as inactive or inconclusive. Unless noted, on the % scale 0 is the no-effect control and ±100 the full control effect; potency means the concentration at half of the fitted maximal effect. Only part of the results is shown; most or all hits stand in other tables.

SMILES | N370S GC | GCN5L2 inh
COc1cccc(COC(=O)c2ccc3c(c2)NC(=O)C(C)S3)c1OC (stereo not drawn) | -0.2% | -5.4%
CCOC(=O)c1c(-c2ccco2)csc1NC(=O)COC(=O)c1cnccn1 | -1.0% | 11.2µM*
CCOC(=O)c1c(-c2cccs2)csc1NC(=O)COC(=O)c1c(C)noc1C | 15.5% | -3.8%
CC1(C)CC(NC(=O)C23CCC(C)(/C(=N/O)C2)C3(C)C)CC(C)(C)N1 (stereo not drawn) | -18.0% | -0.9%
O=C(NCCO)C1COc2ccccc2O1 (stereo not drawn) | 2.6% | -7.2%
COc1ccc(NC2CCCN(C(=O)c3ccc4[nH]c(C)c(C)c4c3)C2)cc1 (stereo not drawn) | 14.0% | -6.7%
COc1cccc(-c2nn(-c3ccccc3)cc2CN(C)Cc2ccon2)c1 | 12.8% | -2.0%
CCOC(=O)N1CCC(NC(=O)CCC(=O)N2CC(C)Oc3ccccc32)CC1 (stereo not drawn) | -4.6% | -0.9%
CC(=O)N1CCOc2ccc(S(=O)(=O)NCc3ccc(C)cc3)cc21 | -2.8% | -3.0%
CC(C)NC(=O)C1CCCN(c2ncnc3c2nc2n3CCCCC2)C1 (stereo not drawn) | nt | -12.2%
O=C1CC(c2cccs2)c2cc3c(cc2N1)OCCO3 (stereo not drawn) | 7.9% | 0.4%
Cc1ccc2[nH]cc(CCNC(=O)c3cccs3)c2c1 | 0.8% | -4.5%
COc1ccc(-c2cc3nc4n(c(=O)c3s2)CCCCC4)cc1 | 6.4% | -0.5%
CCc1nnc(NC(=O)c2cnccn2)s1 | 17.9% | -5.8%
CSc1ccccc1C(=O)OCC(=O)NC1CCS(=O)(=O)C1 (stereo not drawn) | -3.4% | -5.7%
Cc1cc(C)c2nc(C)cc(N/N=C/c3ccc(O)cc3)c2c1 | -14.3% | -10.7%
CCOc1cc(C2C3=C(CC(C)(C)CC3=O)Nc3n[nH]c(C)c32)ccc1O (stereo not drawn) | 0.9% | -10.7%
COCCOC(=O)c1c(NC(=O)CNCc2ccco2)sc(C(N)=O)c1C | 16.0% | -15.5%
COc1ccc(-c2cc(C)no2)cc1S(=O)(=O)N(C)c1ccc(C)c(C)c1 | -11.9% | -15.0%
CCN(Cc1ccccc1)S(=O)(=O)c1ccc(S(=O)(=O)N(Cc2cccc(OC)c2)CC2CCCO2)cc1 (stereo not drawn) | -1.1% | -6.7%
Cc1nnsc1C(=O)Nc1ccc(Cl)cc1 | -3.7% | -1.8%
O=C(O)CSc1ccc(S(=O)(=O)N2CCCC2)cn1 | nt | -7.3%
CC12CCC(=O)N1C(C(=O)Nc1ccc(Br)cc1Cl)CS2 (stereo not drawn) | 2.8% | 3.4%
CCn1c(SCC(=O)Nc2cc(C)on2)nnc1-c1c[nH]c2ccccc12 | -23.3% | -0.6%
COc1ccccc1-c1c(C)nn2c(C)c(C(C)=O)cnc12 | -5.9% | 0.7%
C/C(=N/OC(=O)C1CC1c1ccccc1)c1ccccc1 (stereo not drawn) | ? | -9.1%
Cc1c(Br)c(=O)oc2c(Br)c(O)ccc12 | 1.3% | ?
COc1ccc(/C(=N/O)C(C)(C)NO)cc1 | 12.1% | -2.6%
COc1ccc(N(CC(=O)Nc2ccc(C)c(F)c2)S(=O)(=O)c2c(C)noc2C)cc1 | 2.3% | -22.6%
CC1CCCCN1CCNS(=O)(=O)c1ccc2c(c1)oc(=O)n2C (stereo not drawn) | -15.5% | -1.0%

Seven entries out of the list, sorted by molecular weight, smallest number first.
SMILES | N370S GC | GCN5L2 inh
O=C(NCCO)C1COc2ccccc2O1 (stereo not drawn) | 2.6% | -7.2%
Cc1c(Br)c(=O)oc2c(Br)c(O)ccc12 | 1.3% | ?
COc1cccc(COC(=O)c2ccc3c(c2)NC(=O)C(C)S3)c1OC (stereo not drawn) | -0.2% | -5.4%
CCn1c(SCC(=O)Nc2cc(C)on2)nnc1-c1c[nH]c2ccccc12 | -23.3% | -0.6%
COc1ccc(-c2cc(C)no2)cc1S(=O)(=O)N(C)c1ccc(C)c(C)c1 | -11.9% | -15.0%
CCOC(=O)c1c(-c2ccco2)csc1NC(=O)COC(=O)c1cnccn1 | -1.0% | 11.2µM*
CCOC(=O)N1CCC(NC(=O)CCC(=O)N2CC(C)Oc3ccccc32)CC1 (stereo not drawn) | -4.6% | -0.9%

(listing goes on)
SMILES | N370S GC | GCN5L2 inh
CCOc1ccc2ccccc2c1C(=O)Nc1cc(=O)n(C)c(=O)n1C | 4.5% | -1.6%
CCOC(=O)c1cnn(-c2ncnc3sc(CC)cc23)c1N | 6.7% | 0.4%
CCOC(=O)N1CCN(CC(=O)Nc2c(C(=O)OC)[nH]c3cc(C)ccc23)CC1 | 6.5% | -5.1%
Cn1cc(C(=O)NC2CCCCCCC2)c(=O)c2cc(S(=O)(=O)N3CCCC3)ccc21 | 1.7% | 3.5%
Cc1ccc(S(=O)(=O)N2CCN(S(=O)(=O)N3CCCCC3)CC2)cc1 | -2.5% | -6.7%
O=[N+]([O-])c1cc2c(cc1CN1CCN(c3ccccc3F)CC1)OCO2 | -2.0% | -26.0%
Cc1oc(-c2ccc(Cl)cc2)nc1CN1CCC(C(=O)N2CCc3ccccc3C2)CC1 | -6.9% | -0.8%
CCCCNC(=O)Nc1nc(SCC(=O)OCC)n[nH]1 | 8.3% | -25.2%
O=C(O)[C@H]1CCCC[C@H]1C(=O)Nc1ccc(S(=O)(=O)N2CCOCC2)cc1 | -3.7% | 1.6%
CCn1cc(/C=C(\NC(=O)c2ccccc2OC)C(=O)N2CCN(C)CC2)c2ccccc21 | -12.4% | -2.9%
CN1C(=O)/C(=C/c2cccc(Cl)c2)Sc2ccc(C(=O)NCc3cccnc3)cc21 | -11.6% | -7.8%
CCCCC(CC)C(=O)Nc1ccc(S(=O)(=O)Nc2nccs2)cc1 (stereo not drawn) | -6.3% | 0.6%
CCN(CC)C(=O)C1CCCN(Cc2ccc(N(C)C)cc2)C1 (stereo not drawn) | 4.0% | 0.6%
CCN(C(=O)CSc1nnc(-c2ccco2)n1CC)c1c(N)n(Cc2ccccc2)c(=O)[nH]c1=O | nt | 1.4%
COc1ccc(C(=O)Nc2nc(CC(=O)NCCc3ccccc3)cs2)cc1 | -6.7% | 3.5%
O=C(CSc1ncnc2c1oc1ccccc12)NC1CCCC1 | -5.6% | -2.0%
COCCCNC(=O)C[C@H]1C[C@H](C(=O)N2CCCCC2)[C@@]2(CCc3ccccc3)c3[nH]c4ccc(Cl)cc4c3CCN2C1=O | nt | -5.7%
O=C(NCC(=O)N(c1ccccc1)C(C(=O)NC1CCCC1)c1ccncc1)c1cccs1 (stereo not drawn) | -18.9% | 0.0%
COc1ccc(NC(=O)CN2C(=O)CCn3nc(-c4cccn4C)cc32)cc1 | nt | -2.9%
CCC(C)NC(=O)Cn1nc(C(F)(F)F)c2c1CCCC2 (stereo not drawn) | -20.8% | 2.7%
COc1ccc(NC(C)=O)cc1NC(=O)CN1CCN(S(=O)(=O)c2ccc(C(C)C)cc2)CC1 | -21.0% | -1.2%
CCN1CC(C)C(O)(c2ccccc2)CC1C (stereo not drawn) | 1.8% | -3.3%
O=C(NNC1CC(=O)N(c2ccc(Cl)cc2)C1=O)c1ccccc1Cl (stereo not drawn) | -3.7% | -0.1%
C=CCn1c(SCC(=O)N2CCCCC2)nnc1-c1ccncc1 | -1.6% | -7.1%
COc1ccc(NC(=O)c2ccc3ccccc3c2)cc1NS(=O)(=O)c1ccc(F)cc1 | 24.2% | -7.5%
CCN(CC)C(=O)Cc1c(O)c2ccccc2[nH]c1=O | -15.6% | -2.6%
CCOc1ccc2c(c1)c(=O)c(S(=O)(=O)c1ccc(CC)cc1)cn2CC | nt | 2.5%
CCOc1ccc(NC(=O)Cn2nc(Cc3ccncc3)c3ccccc3c2=O)cc1 | nt | -6.7%
COc1ccc(-c2cc(C(F)(F)F)nc(SCC(=O)N3CCCCC3C)n2)cc1OC (stereo not drawn) | nt | -1.5%
CCc1nnc2c(NCc3ccc(F)cc3)nc3ccccc3n12 | nt | -9.3%
CC1(C)CC(=O)C(CC2=C(N)CC(C)(C)CC2=O)=C(N)C1 | 1.0% | -2.4%
Cc1nn(-c2ccccc2)c(C)c1-c1ccccc1O | 1.4% | -5.7%
COc1ccc(C(CC(=O)O)NC(=O)C(c2ccccc2)c2ccccc2)cc1 (stereo not drawn) | -3.3% | -2.2%
Nc1nc(-c2ccc3c(c2)OCCO3)c(CC(=O)O)s1 | -22.9% | 35.5µM*
O=C(NCc1ccccc1)C1=C[C@H](C2CC2)C[C@H](OCCCCO)O1 | -2.4% | -5.4%
O=C(Nc1nnc(C(F)(F)F)s1)c1ccc(N2C(=O)C3C4C=CC(C4)C3C2=O)cc1 (stereo not drawn) | 21.4% | -1.7%
CC(C)(C)c1cc(C(=O)NCc2ccccc2)ccn1 | 3.7% | 2.1%
Cn1c(=O)c2c(nc(N3CCCCCC3)n2CC(=O)c2ccc(Br)cc2)n(C)c1=O | 2.4% | -5.6%
Cc1n[nH]c(C)c1CCOc1ccc(C(C)C)cc1 | -0.8% | nt
Fc1ccccc1CNC(=S)NCc1ccc(Cl)cc1 | -0.1% | -6.8%
Cc1cc(C)cc(C(=O)NCCC(=O)N2CCC3(CC2)NCCc2[nH]cnc23)c1 | 0.8% | 0.0%
O=C(NC1CCS(=O)(=O)C1)c1cccc(Br)c1 (stereo not drawn) | -1.0% | 2.1%
Cc1ccc(S(=O)(=O)N2CCOCC2)cc1C(=O)NCc1ccco1 | -5.7% | -14.7%
Cc1ccccc1C(=O)Nc1cccc(NC(=S)NC(=O)c2cccs2)c1 | nt | 0.7%
COc1ccc(C(=O)OC2CCCCC2CN(C)C)cc1 (stereo not drawn) | -5.3% | -3.6%

Shown as a hit in GCN5L2 inh (from the list above):
SMILES | N370S GC | GCN5L2 inh
CCOC(=O)c1c(-c2ccco2)csc1NC(=O)COC(=O)c1cnccn1 | -1.0% | 11.2µM*
Nc1nc(-c2ccc3c(c2)OCCO3)c(CC(=O)O)s1 | -22.9% | 35.5µM*

Remaining list, next part
SMILES | N370S GC | GCN5L2 inh
CC1=CC(=O)N(c2ccc(C)cc2)C1c1ccc(Cl)cc1 (stereo not drawn) | 9.0% | -11.1%
COc1ccccc1/C=N/NC(=O)CN(C1=NS(=O)(=O)c2ccccc21)c1ccccc1 | 5.7% | -4.3%
CCCN(CC(=O)Nc1ccccc1C)C(=O)COc1c(Cl)cccc1Cl | -6.8% | 0.5%
O=C(c1ccc2c(=O)n(Cc3ccc4c(c3)OCO4)c(=S)[nH]c2c1)N1CCCCC1 | 2.3% | 1.5%
COc1ccccc1CNC(=O)C1CC2Cn3c(nc4cc5ccccc5cc43)C2N1C (stereo not drawn) | -10.5% | 0.2%
O=C(Nc1nc2ccccc2[nH]1)c1ccc(Cl)cc1 | -10.2% | -1.0%
COCCOC(=O)c1c(C)nc(SCC(=O)Nc2ccc(OC)cc2)c(C#N)c1-c1ccco1 | 7.7% | ?
COC1CCCN(C(=O)c2ccc(OC3CCN(CCc4ccccc4)CC3)cc2)C1 (stereo not drawn) | 2.5% | -1.1%
CCOc1ccccc1-n1c(SCC(=O)NC2CCCC2)nnc1-c1ccoc1C | 20.3% | -4.2%
CN(C)S(=O)(=O)Nc1ccc(C(=O)O)cc1 | 1.0% | -2.6%
O=C(CCCc1ccccc1)Nc1ccc2c(c1)OCCO2 | 11.9% | -2.9%
CC(=S)/C=C1\Sc2ccccc2N1C | 0.1% | -4.3%
COc1ccc(-n2nc3c(c2NC(=O)Cc2cccc(C)c2)CS(=O)C3)cc1 (stereo not drawn) | -19.0% | -1.8%
C=C(C)COc1ccc(-c2nc(N)ncc2-c2ccc(Br)cc2)c(O)c1 | -1.3% | -15.6%
O=C(Cn1ncc2c3ccccc3n(Cc3cccc(Cl)c3)c2c1=O)NCc1ccccn1 | -1.9% | ?

Compound profiles, from the list above. Screens in order: N370S GC, GCN5L2 inh
Record of CCCN(CC(=O)Nc1ccccc1C)C(=O)COc1c(Cl)cccc1Cl : -6.8%, 0.5%
Record of O=C(c1ccc2c(=O)n(Cc3ccc4c(c3)OCO4)c(=S)[nH]c2c1)N1CCCCC1 : 2.3%, 1.5%
Record of COCCOC(=O)c1c(C)nc(SCC(=O)Nc2ccc(OC)cc2)c(C#N)c1-c1ccco1 : 7.7%, ?

Additional structures.
SMILES | N370S GC | GCN5L2 inh
COc1cccc(N2CCN(C(=O)Nc3ccccc3Cl)CC2)c1 | 0.9% | 0.5%
CC(C)(C)SCCNC(=O)/C=C/c1ccc(F)cc1 | 2.9% | -0.6%
CCC(C)N(C)Cc1cccc(C2(O)CCN(S(=O)(=O)c3ccc(F)cc3)CC2)c1 (stereo not drawn) | -0.1% | 0.9%
Cc1cccc(C)c1NC(=O)CSc1nc2ccccc2c(=O)[nH]1 | 6.0% | -0.7%
O=C(NCC1CCCO1)c1cccc(NC(=O)c2ccco2)c1 (stereo not drawn) | -0.7% | 2.1%
Cc1ccc2nc(COc3ccccc3NC(=O)COc3ccc(F)cc3)cc(=O)n2c1 | nt | -3.4%
CCCCNc1nc(Oc2ccc(OCCC)nn2)nc(N(C)C)n1 | nt | -0.8%
CCC(CC)c1nnc(NC(=O)C2=COCCO2)s1 | -12.4% | -5.9%
O=C(Cn1ccccc1=O)Nc1ccc(Cl)c(S(=O)(=O)N2CCCCC2)c1 | nt | -6.0%
COc1ccccc1N(C)S(=O)(=O)c1ccc(Cl)c(C(=O)NCCCN2CCOCC2)c1 | -8.7% | ?
CC(C(=O)Nc1ccccc1Cl)c1ccc([N+](=O)[O-])cc1 (stereo not drawn) | -1.5% | -6.7%
Cc1ccc(S(=O)(=O)Nc2cccc3cccnc23)c([N+](=O)[O-])c1 | 25.8%&10.5% | -9.7%
